CSC inhib = cancer stem cell viability inhibitors, primary screen, luminescence. cancer stem cell-like cells viability. inhibition, % at 7.5 µM. 300,000 tested, 1.1% active;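 active = mean at 75% or more and at least half the replicates too; tested in HMLE shEcad cells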;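 note: 0% = median of negative and 100% = median of positive control wells; the first replicate is given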
HIV Env fusion = inhibitors of HIV-1 Env-driven cell-cell fusion, primary screen, HeLa-JRFL effector, CEM21 target cells, luciferase; inhibition, % at 12.3 µM; 360,000 tested, 1.1% active; AID 651610, 2012;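 active = mean replicate inhibition score of at least 50 and every replicate individually at or above 50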;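 note: 0% = plate neutral controls and 100% = maraviroc near 300 nM; one replicate is shown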
Rce1 inh = yeast Rce1p protease inhibitors, primary screen, biochemical, fluorescence, cell-free homogeneous; 290,000 tested, 0.27% active; calls only; CAAX prenyl protease 2 (Saccharomyces cerevisiae (strain ATCC 204508 / S288c)), Q03530; yeast membranes, quenched prenylated peptide cleavage fluorescence; AID 2563, 2010;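 active = fall in fluorescence gain of 50% or more versus controls, with final raw signal at or below 3038400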;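 note: plate controls were neutral control wells for no effect and wells lacking membranes for full effect; tested at 10 µM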
Target sequence (Q03530 whole entry, looked up): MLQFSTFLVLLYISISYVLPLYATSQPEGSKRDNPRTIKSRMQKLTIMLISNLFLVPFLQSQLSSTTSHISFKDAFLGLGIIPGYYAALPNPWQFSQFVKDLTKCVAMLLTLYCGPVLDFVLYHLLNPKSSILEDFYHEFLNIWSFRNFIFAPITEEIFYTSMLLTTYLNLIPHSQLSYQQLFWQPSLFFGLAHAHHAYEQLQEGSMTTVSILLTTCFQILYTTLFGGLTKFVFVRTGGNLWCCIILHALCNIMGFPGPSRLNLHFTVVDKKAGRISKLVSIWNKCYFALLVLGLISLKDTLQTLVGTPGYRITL
PABP FP inh = PABP poly(A) RNA binding inhibitors, primary screen, biochemical, fluorescence polarization, uHTS | Polyadenylate-binding protein 1 (Homo sapiens), P11940 | inhibition, % at 35 µM | 290,000 tested, 1% active;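 active = 50% or more with normal probe brightness, or confirmed in later tests; about a fifth of its hits are not listed in these tables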;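 note: calls also rest on retests at 20 µM and on dose response follow-up; controls were probe without protein and protein plus probe with vehicle; some compounds called inactive have numbers as strong as hits; many hits fall short of the cut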
Target sequence (P11940 whole entry, looked up): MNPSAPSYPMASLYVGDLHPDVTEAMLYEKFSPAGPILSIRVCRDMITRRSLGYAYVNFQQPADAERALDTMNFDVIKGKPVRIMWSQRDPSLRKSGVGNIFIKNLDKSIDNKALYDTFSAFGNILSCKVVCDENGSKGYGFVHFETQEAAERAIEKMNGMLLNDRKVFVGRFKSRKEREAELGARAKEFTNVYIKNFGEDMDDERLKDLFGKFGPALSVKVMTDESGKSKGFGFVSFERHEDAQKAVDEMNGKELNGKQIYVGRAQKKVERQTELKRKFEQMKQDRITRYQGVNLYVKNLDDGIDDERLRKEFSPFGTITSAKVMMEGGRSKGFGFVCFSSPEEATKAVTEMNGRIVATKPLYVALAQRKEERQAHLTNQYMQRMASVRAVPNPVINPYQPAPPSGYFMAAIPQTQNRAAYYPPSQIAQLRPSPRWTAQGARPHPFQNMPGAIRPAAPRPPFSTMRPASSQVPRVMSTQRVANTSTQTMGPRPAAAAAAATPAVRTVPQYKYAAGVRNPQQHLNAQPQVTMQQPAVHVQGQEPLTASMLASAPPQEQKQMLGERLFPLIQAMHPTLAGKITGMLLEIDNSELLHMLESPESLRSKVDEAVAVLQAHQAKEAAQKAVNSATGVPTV
UUG fidelity = modulators of yeast start codon fidelity, primary screen, whole organism, S. cerevisiae, single point, plate reader | S. cerevisiae UUG-firefly luciferase reporter, luminescence/redox ratio | activity score, % at 18.7 µM | 350,000 tested, 0.13% active | AID 602363, 2012;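 active = replicate mean at a twofold rise or more, about +100% in these data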;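 note: firefly luciferase made from a UUG start codon reports start codon fidelity; reporter light over untreated wells divided by growth signal over untreated wells; some hits fall short of that in this replicate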
eIF4H inh = human eIF4H binding inhibitors, primary screen, translation initiation inhibitor project, biochemical, uHTS, fluorescence polarization; Eukaryotic translation initiation factor 4H (Homo sapiens), Q15056; eIF4H fluorescence polarization binding assay; inhibition, % at 35 µM; 290,000 tested, 0.94% active;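 active = 50% or more with normal probe brightness, or confirmed in later tests; about a fifth of its hits are not listed in these tables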;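 note: calls also rest on retests at 20 µM and on dose response follow-up; 0% = protein and probe with vehicle and 100% = probe without protein; strong numbers were not always called active; many hits fall short of the cut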
MT1-MMP act inh = blockers of MT1-MMP proenzyme processing, primary screen, HT1080 RFP-PRO-GFP cells, GFP/RFP fluorescence; GFP/RFP ratio fluorescence, overnight; percent of plate control window, DMSO zero; GFP/RFP ratio change, % at 20 µM; 360,000 tested, 0.061% active;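 active = GFP/RFP ratio change of at least 30% with cell ATP level not reduced by more than half and red fluorescence within 50% of control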; note: strong numbers were not always called active
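Read-out: GFP/RFP fluorescence ratio; Test system: RFP-PRO-GFP reporter HT1080 cells; Compound dosing: single-point 20 µM compound, 1% DMSO; Times: overnight compound exposure at 37 °C.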
eIF4H inh retest = also measured in eIF4H inh; calls as there; inhibition, %; compound at 20 µM; confirmation average;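 mean of two retest wells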
PABP FP inh retest = recorded beside PABP FP inh, whose call it bears; inhibition, %; compound at 20 µM; confirmation repeats;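 mean of two retest wells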
MT1-MMP act inh RFP = second read-out of MT1-MMP act inh, no call of its own (marks repeat the call); RFP signal change, %; measured here: RFP expression control read;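 0 = vehicle wells; hits needed this value within 50% of zero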
Numbers without * were called inactive. Not all compounds are listed, so the mix of outcomes need not match the whole.

How did Cc1cc(C(=O)Nc2cc(C(F)(F)F)ccc2N2CCOCC2)no1 do in these assays?
CSC inhib: -26.7; HIV Env fusion: 10.7; Rce1 inh: inactive; PABP FP inh: 9.6; UUG fidelity: -3.4; eIF4H inh: -3.7; MT1-MMP act inh: -2.9; MT1-MMP act inh RFP: 1.2

How did CC1(C)CC(=O)C=C(c2ccc(F)cc2OCc2ccccc2)C1 do in these assays?
CSC inhib: 9.1; HIV Env fusion: 76.9*; UUG fidelity: -11.2; MT1-MMP act inh: 1.7; MT1-MMP act inh RFP: -4.8

What do the screens show for `COc1ccc(Cl)cc1NC(=O)C(C)Sc1nncn1C` (stereo not given)?
CSC inhib: -17.5; Rce1 inh: inactive; PABP FP inh: -1.0; UUG fidelity: -15.1; eIF4H inh: -9.5; MT1-MMP act inh: -1.0; MT1-MMP act inh RFP: 1.5

What do the screens show for `O=C(COc1ccc(F)cc1)Nc1cc(Cl)ccc1-n1cncn1`?
CSC inhib: -16.1; HIV Env fusion: -26.5; Rce1 inh: inactive; UUG fidelity: -5.0; MT1-MMP act inh: 1.7; MT1-MMP act inh RFP: 3.5

What do the screens show for `COc1ccc(C(=O)N(C(C)C)C(C)C)c(OC)c1`?
CSC inhib: 10.0; HIV Env fusion: -65.4; Rce1 inh: inactive; PABP FP inh: -11.0; UUG fidelity: -1.4; eIF4H inh: 2.4; MT1-MMP act inh: -9.7; MT1-MMP act inh RFP: 0.3

What do the screens show for `O=C(NC(=S)Nc1cccc([N+](=O)[O-])c1)c1ccccc1`?
CSC inhib: -5.0; HIV Env fusion: 1.5; Rce1 inh: inactive; PABP FP inh: -5.8; UUG fidelity: -0.2; eIF4H inh: -0.7; MT1-MMP act inh: 2.7; MT1-MMP act inh RFP: 1.5

How did O=C(CNCCCO)Nc1cc(C(F)(F)F)cc(NC(=O)CNCCCO)c1Cl do in these assays?
CSC inhib: -7.7; HIV Env fusion: -5.7; Rce1 inh: inactive; PABP FP inh: 1.8; eIF4H inh: -0.2; MT1-MMP act inh: 4.1; MT1-MMP act inh RFP: 1.6

What do the screens show for `CC(C)C(=O)NC(NC(=O)C(C)C)c1ccc([N+](=O)[O-])cc1`?
CSC inhib: -12.2; HIV Env fusion: -11.6; Rce1 inh: inactive; PABP FP inh: 4.9; UUG fidelity: -20.6; eIF4H inh: 2.7; MT1-MMP act inh: 1.4; MT1-MMP act inh RFP: 7.6

Results for COC(=O)c1c(NC(=O)C(=O)NCC2CCCO2)sc2c1CC(C)(C)OC2 (stereo not given) ?
CSC inhib: 4.2; HIV Env fusion: 7.9; Rce1 inh: inactive; PABP FP inh: -3.7; UUG fidelity: -17.7; eIF4H inh: 1.4; MT1-MMP act inh: 2.2; MT1-MMP act inh RFP: 0.1

What do the screens show for `CC/C(=N/Nc1cccc(Cl)c1)c1cnnc(SC)n1`?
CSC inhib: -0.5; HIV Env fusion: -15.6; Rce1 inh: inactive; PABP FP inh: -3.7; eIF4H inh: 10.1; MT1-MMP act inh: -12.8; MT1-MMP act inh RFP: -1.4

Results for O=C(O)C(Cc1ccccc1)N1CCS(=O)(=O)CC1 (stereo not given) ?
CSC inhib: -2.0; HIV Env fusion: -11.8; PABP FP inh: 20.4; eIF4H inh: 4.4; MT1-MMP act inh: 1.2; MT1-MMP act inh RFP: 3.1

Results for Cc1nc(SCC(=O)c2c(N)n(C3CC3)c(=O)[nH]c2=O)[nH]c(=O)c1CCO ?
CSC inhib: -1.2; HIV Env fusion: 20.1; UUG fidelity: -6.7; MT1-MMP act inh: 0.5; MT1-MMP act inh RFP: 4.7

Results for O=C(/C=C/c1cccc(Oc2ccccc2)c1)N1CCOCC1 ?
HIV Env fusion: -15.0; Rce1 inh: inactive; PABP FP inh: 23.1; eIF4H inh: -10.8; MT1-MMP act inh: -3.7; MT1-MMP act inh RFP: -2.3

How did CCc1cc2c(NC(Cc3ccccc3)C(=O)O)nc(C)nc2s1 (stereo not given) do in these assays?
CSC inhib: -0.8; HIV Env fusion: 6.6; Rce1 inh: inactive; PABP FP inh: -9.9; UUG fidelity: -12.9; eIF4H inh: -14.2; MT1-MMP act inh: 1.8; MT1-MMP act inh RFP: 0.6

What do the screens show for `CCN(CC(=O)Nc1c(F)cccc1F)C(=O)CCCSc1nc2ccccc2[nH]1`?
HIV Env fusion: 0.3; UUG fidelity: -1.7; MT1-MMP act inh: -3.7; MT1-MMP act inh RFP: 0.7

Results for Cc1ccc(NC(=O)NC2CCCCC2)cc1Cl ?
CSC inhib: -2.5; HIV Env fusion: -206.5; PABP FP inh: -1.6; eIF4H inh: 2.5; MT1-MMP act inh: -1.3; MT1-MMP act inh RFP: -0.7

What do the screens show for `CS(=O)(=O)N1CCc2cc(-c3csc(NCC4CCCO4)n3)ccc21` (stereo not given)?
CSC inhib: -2.3; Rce1 inh: inactive; UUG fidelity: -6.9; MT1-MMP act inh: -1.4; MT1-MMP act inh RFP: 0.7

How did COc1ccc(Cl)cc1NC(=O)CSc1nc2sccc2c(=O)[nH]1 do in these assays?
CSC inhib: -8.7; HIV Env fusion: -3.4; Rce1 inh: inactive; PABP FP inh: 2.7; eIF4H inh: 13.0; MT1-MMP act inh: 1.8; MT1-MMP act inh RFP: -2.3

Results for COCCN1C(=O)c2oc3cc(C)c(C)cc3c(=O)c2C1c1ccc(O)cc1 (stereo not given) ?
CSC inhib: -8.7; HIV Env fusion: 10.5; Rce1 inh: inactive; UUG fidelity: -9.3; MT1-MMP act inh: -4.8; MT1-MMP act inh RFP: -12.2

Results for CC(=O)NC(c1ccccc1)c1nc(-c2cncnc2)cs1 (stereo not given) ?
HIV Env fusion: 20.2; UUG fidelity: -10.5; MT1-MMP act inh: 3.9; MT1-MMP act inh RFP: 8.8

The final 3 records of the part before open the next one.
How did COc1ccc(Cl)cc1NC(=O)CSc1nc2sccc2c(=O)[nH]1 do in these assays?
CSC inhib: -8.7; HIV Env fusion: -3.4; Rce1 inh: inactive; PABP FP inh: 2.7; eIF4H inh: 13.0; MT1-MMP act inh: 1.8; MT1-MMP act inh RFP: -2.3

Results for COCCN1C(=O)c2oc3cc(C)c(C)cc3c(=O)c2C1c1ccc(O)cc1 (stereo not given) ?
CSC inhib: -8.7; HIV Env fusion: 10.5; Rce1 inh: inactive; UUG fidelity: -9.3; MT1-MMP act inh: -4.8; MT1-MMP act inh RFP: -12.2

Results for CC(=O)NC(c1ccccc1)c1nc(-c2cncnc2)cs1 (stereo not given) ?
HIV Env fusion: 20.2; UUG fidelity: -10.5; MT1-MMP act inh: 3.9; MT1-MMP act inh RFP: 8.8

How did Cc1sc2nc(CSCC(=O)NC3CCCCC3)[nH]c(=O)c2c1C do in these assays?
CSC inhib: -7.2; HIV Env fusion: 2.3; MT1-MMP act inh: -47.2; MT1-MMP act inh RFP: 0.5

What do the screens show for `COC(=O)c1ccc(NCC(=O)c2ccccc2)cc1`?
CSC inhib: 2.2; Rce1 inh: inactive; PABP FP inh: 9.4; eIF4H inh: -0.9; MT1-MMP act inh: 1.7; MT1-MMP act inh RFP: 5.2

What do the screens show for `CCCCCCN(C(=O)CCCCCN1C(=O)NC(c2ccc(Cl)cc2)C(C(=O)OCc2ccccc2)=C1C)C(C(=O)NCCCC)c1ccc(OCC(=O)OC)c(C(=O)OC)c1` (stereo not given)?
HIV Env fusion: 23.8; PABP FP inh: 21.8; eIF4H inh: -14.3

Results for CCCCn1c(N)c(N(CCOC)C(=O)c2cccc(S(=O)(=O)N(CC)c3ccccc3)c2)c(=O)[nH]c1=O ?
CSC inhib: -8.0; Rce1 inh: inactive; MT1-MMP act inh: -2.0; MT1-MMP act inh RFP: -3.7

What do the screens show for `Cc1cc(C(F)(F)F)nc(SCC(=O)Nc2cc(C)on2)n1`?
CSC inhib: -10.6; HIV Env fusion: -48.7; Rce1 inh: inactive; PABP FP inh: -6.3; UUG fidelity: -3.9; eIF4H inh: -5.4; MT1-MMP act inh: 3.8; MT1-MMP act inh RFP: 4.9

How did COc1ccc(NS(=O)(=O)c2ccc3c(c2)N(C(C)=O)CCO3)cc1 do in these assays?
CSC inhib: -0.9; HIV Env fusion: -3.3; Rce1 inh: inactive; PABP FP inh: -2.5; UUG fidelity: -10.4; eIF4H inh: -4.9; MT1-MMP act inh: 1.3; MT1-MMP act inh RFP: -2.0

What do the screens show for `CC1CCN(C(C(=O)NC2CCCCC2)c2cc3c(cc2[N+](=O)[O-])OCO3)CC1` (stereo not given)?
CSC inhib: -10.6; Rce1 inh: inactive; PABP FP inh: -6.9; UUG fidelity: -4.6; eIF4H inh: 50.4; MT1-MMP act inh: -1.8; eIF4H inh retest: 9.4; PABP FP inh retest: 11.1; MT1-MMP act inh RFP: 0.5

Results for O=C(c1ccc2c3c(cccc13)CC2)C1CCCN(C(=O)c2ccc(=O)[nH]c2)C1 (stereo not given) ?
HIV Env fusion: 21.4; Rce1 inh: inactive; PABP FP inh: 22.8; eIF4H inh: 31.8; MT1-MMP act inh: 0.3; MT1-MMP act inh RFP: 2.5

Results for S=c1[nH]nc(COc2ccccc2)n1-c1ccccc1 ?
HIV Env fusion: 15.5; Rce1 inh: inactive; PABP FP inh: -4.4; UUG fidelity: -16.2; eIF4H inh: -6.7; MT1-MMP act inh: 0.0; MT1-MMP act inh RFP: 2.4

What do the screens show for `COc1ccc2oc(C(=O)NN3C(C)CCCC3C)c(C)c2c1` (stereo not given)?
CSC inhib: -10.2; HIV Env fusion: 2.0; Rce1 inh: inactive; PABP FP inh: -4.4; eIF4H inh: 4.0; MT1-MMP act inh: -1.3; MT1-MMP act inh RFP: 1.5

How did CSc1ncc(CN2CCCC(C(=O)Nc3ccc(-c4ccco4)cc3)C2)cn1 (stereo not given) do in these assays?
CSC inhib: -1.9; HIV Env fusion: -7.0; Rce1 inh: inactive; PABP FP inh: 41.2; UUG fidelity: -14.6; eIF4H inh: 61.8; MT1-MMP act inh: -11.9; eIF4H inh retest: -15.5; PABP FP inh retest: 16.4; MT1-MMP act inh RFP: 4.0

How did Cc1noc(C)c1-c1ccc(C(=O)NCCN2CCOCC2)c2occc12 do in these assays?
HIV Env fusion: -26.6; UUG fidelity: -13.8; MT1-MMP act inh: 10.0; MT1-MMP act inh RFP: 6.8

Results for CC(=O)c1ccc(N2CCN(C(=S)NCc3ccco3)CC2)cc1 ?
HIV Env fusion: 15.9; Rce1 inh: inactive; PABP FP inh: 0.2; UUG fidelity: -22.4; eIF4H inh: -5.8; MT1-MMP act inh: -1.0; MT1-MMP act inh RFP: 0.9

How did COC(=O)c1c(NC(C)=O)sc(Cc2ccccc2)c1C do in these assays?
CSC inhib: 6.1; HIV Env fusion: 14.7; Rce1 inh: inactive; PABP FP inh: -3.7; UUG fidelity: -13.9; eIF4H inh: -13.0; MT1-MMP act inh: -0.1; MT1-MMP act inh RFP: -6.7

Results for CCn1nnc(NC(=O)Cc2ccc(Cl)cc2)n1 ?
CSC inhib: -4.9; HIV Env fusion: -17.6; Rce1 inh: inactive; PABP FP inh: -2.4; eIF4H inh: 2.3; MT1-MMP act inh: -1.4; MT1-MMP act inh RFP: -6.2

Screening data deposited in PubChem BioAssay by several laboratories.
